Beta2AR agonist = activates human beta-2 adrenergic receptor causing internalization; Am2.2-beta2AR cells, FAP receptor internalization, flow cytometry; reference of the scale not given here; 0.43% of 340,000 active; P07550; response, % (concentration not given with the values);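 active = response above a set limit, near 3 SD of response in nonfluorescent compounds, cut at about 42% in these data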;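 note: stock transfer was 100 nL into about 11 µL; a reference agonist was the positive control; negative values mostly stem from fluorescent compounds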
Target sequence (P07550 whole entry, looked up): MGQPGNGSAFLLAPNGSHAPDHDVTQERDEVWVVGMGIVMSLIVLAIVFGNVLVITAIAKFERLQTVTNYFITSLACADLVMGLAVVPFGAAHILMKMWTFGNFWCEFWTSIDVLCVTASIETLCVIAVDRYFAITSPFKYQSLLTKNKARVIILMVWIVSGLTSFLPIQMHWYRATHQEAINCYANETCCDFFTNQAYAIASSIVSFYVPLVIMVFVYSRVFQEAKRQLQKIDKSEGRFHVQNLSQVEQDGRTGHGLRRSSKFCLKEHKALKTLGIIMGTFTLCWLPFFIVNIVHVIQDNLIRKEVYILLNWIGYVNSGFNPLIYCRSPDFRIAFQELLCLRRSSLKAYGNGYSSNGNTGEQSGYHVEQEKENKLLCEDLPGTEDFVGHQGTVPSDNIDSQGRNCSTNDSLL
HNF4A DNA FP = change in binding of human HNF4 alpha to DNA. 0.3% of 360,000 active. activity change, % at 10 µM. HNF4a-FITC DNA binding, fluorescence polarization, 1 h; in the data active = activity change above about 30%, passing the limit was not always enough;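 note: controls were the assay level and a saturating level of protein; the project sought stronger binding though the title names inhibitors; some compounds called inactive have numbers as strong as hits; positive values seem to mean higher polarization but the record does not say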
LANA-H2B inh = blocks KSHV LANA binding to histone H2A/H2B | Q9QR71 | cell-free LANA-H2A/H2B peptide, fluorescence polarization | inhibition, % (test concentration not listed) | 0.6% of 320,000 active | AID 2629; in the data active = inhibition mostly above about 10%, no sharp cut-off; inactive = mostly below about 6.7%;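 note: stock transfer was 7.5 nL into about 10 µL; 0% = median of vehicle wells and 100% = median of positive control wells; one replicate is shown; the record names a cut of 25% in any replicate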
ALR H2O2 inh = human ALR oxidase inhibition via reduced H2O2 | P55789 | purified ALR, DTT oxidation, H2O2 HRP-luminol luminescence | inhibition, % (concentration not given with the values) | 3.8% of 290,000 active;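 active = mean and each replicate at 75% or more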;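 note: stock transfer was 7.5 nL into about 7.5 µL; 0% = neutral wells and 100% = wells with inactivated enzyme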
Target sequence (P55789 whole entry, looked up): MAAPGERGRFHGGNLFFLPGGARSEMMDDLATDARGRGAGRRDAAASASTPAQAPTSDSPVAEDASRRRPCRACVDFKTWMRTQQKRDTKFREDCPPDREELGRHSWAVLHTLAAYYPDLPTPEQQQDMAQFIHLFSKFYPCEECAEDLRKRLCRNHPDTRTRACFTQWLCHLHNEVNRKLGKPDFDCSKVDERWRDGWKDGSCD
Ecoli growth = blocks Escherichia coli growth; OD600 absorbance (no concentration beside the values); 0.21% of 330,000 active; OD600, 23 h; stronger effect = lower value; AID 1053175;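 active = OD600 absorbance below the run mean of sample wells minus 3.6 SD, in any replicate, cut at about 0.56 in these data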;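 note: stock transfer was 300 nL into about 60 µL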
FGF22 binding = FGF22 (human) thermal shift binding; AID 651658; recombinant FGF22 thermal shift, SYPRO orange fluorescence; percent of sucrose octasulfate shift, DMSO zero; Q9HCT0; 1.5% of 340,000 active; calls only at 9.99 µM;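 active = melting point raised past a set limit in the mean and every replicate; three in four hits are not shown here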
UCH37 inh = inhibitors of human deubiquitinating enzyme UCH37; purified proteasome/UCH37, Ub-AMC cleavage fluorescence; inhibition, % (no concentration beside the values); 0.33% of 330,000 active; AID 588478;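 active = mean of two replicates above 20%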;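 note: 0% = compound-free wells with enzyme and 100% = wells lacking proteasome; stock transfer was 100 nL into about 20 µL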
Target sequence (Q9Y5K5 whole entry, looked up): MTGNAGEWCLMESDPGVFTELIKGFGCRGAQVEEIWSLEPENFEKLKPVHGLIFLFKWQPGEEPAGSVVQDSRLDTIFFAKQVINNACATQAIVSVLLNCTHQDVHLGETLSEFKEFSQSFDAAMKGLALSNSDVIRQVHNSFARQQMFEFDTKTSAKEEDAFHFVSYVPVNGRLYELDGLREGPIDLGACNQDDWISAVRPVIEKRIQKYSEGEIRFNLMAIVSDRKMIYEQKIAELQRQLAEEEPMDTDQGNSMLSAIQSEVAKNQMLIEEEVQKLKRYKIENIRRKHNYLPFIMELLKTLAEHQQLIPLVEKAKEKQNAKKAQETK
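Material: human UCH37 enzyme supplied as purified proteasome complex / Amount: 0.15 nM proteasome as dispensed / Buffer or medium: pH 7.4 Tris-HCl (50 mM) with ovalbumin, ATP-MgCl2, DTT / Times: preincubation 30 min, reaction 25 min, room temperature / Technique: AMC fluorescence from Ub-AMC cleavage, excitation 355 nm, emission 460 nm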
An asterisk follows results filed as active; i = inactive; / = no result given. This is a subset; count on the stated rates, not on these rows.

SMILES	Beta2AR agonist	HNF4A DNA FP	LANA-H2B inh	ALR H2O2 inh	Ecoli growth	FGF22 binding	UCH37 inh
COc1ccc(S(=O)(=O)N2CCCC2CNC(=O)C(=O)NCc2cccs2)cc1 (stereo unspecified)	-4	0.6	-1.0	/	0.61	i	0.6
Cc1nn(CC(=O)Nc2ccc(Cl)cc2)c(=O)c2cc(-c3ccccc3)nn12	8	-1.9	3.2	-6	0.68	i	4.7
COc1ccc(OCC(O)CN2CCCCCC2)cc1 (stereo unspecified)	-12	1.7	-3.0	/	0.73	/	2.8
Cc1ccc(C)c(Cn2nc(-c3ccccc3)ccc2=O)c1	-13	-4.4	-0.9	-4	0.63	i	3.4
Cn1c(=O)c2c(nc(NCCc3ccccc3)n2CC(=O)NCCc2ccccc2)n(C)c1=O	2	-4.4	-5.0	-1	0.71	/	3.9
Cc1ccc(CNC(=O)c2cc3ccccc3oc2=O)cc1	-2	-2.8	-1.4	-4	0.66	i	-3.3
CCOC(=O)c1c(C)c(C(=O)O)n(C)c1C	-1	1.6	5.2	-40	0.73	/	1.5
Cc1noc(NS(=O)(=O)c2ccc(N/C=C/C(=O)c3ccncc3)cc2)c1C	-2	-0.8	1.4	10	0.66	/	18
CCC(C)(C(=O)NC1CCCC1)N(C(=O)c1ccccn1)c1ccc(C)cc1 (stereo unspecified)	10	-1.7	1.4	11	0.71	/	0.3
COc1ccc(C)cc1NC(=O)C(OC(=O)Cn1cnc2c1c(=O)n(C)c(=O)n2C)c1ccccc1 (stereo unspecified)	-4	3.5	3.0	0	0.66	i	4.9
COCCNc1nc2nonc2nc1N1CCC(N(C)C)C1 (stereo unspecified)	-4	-0.6	-1.5	-8	0.7	i	5.4
C=CC[C@@H](Cc1ccc(F)cc1)C(=O)OC[C@H]1CCCN1C(=O)[C@@H](CC=C)CC(=O)N[C@H](CO)Cc1ccccc1	1	0.6	-0.1	-7	/	i	1.1

Entries of single compounds, quoted from the list:
Listed for `COc1ccc(S(=O)(=O)N2CCCC2CNC(=O)C(=O)NCc2cccs2)cc1` (stereo unspecified) : Beta2AR agonist: -4; HNF4A DNA FP: 0.6; LANA-H2B inh: -1.0; ALR H2O2 inh: /; Ecoli growth: 0.61; FGF22 binding: i; UCH37 inh: 0.6
Listed for `CCOC(=O)c1c(C)c(C(=O)O)n(C)c1C` : Beta2AR agonist: -1; HNF4A DNA FP: 1.6; LANA-H2B inh: 5.2; ALR H2O2 inh: -40; Ecoli growth: 0.73; FGF22 binding: /; UCH37 inh: 1.5

Continuation:
SMILES	Beta2AR agonist	HNF4A DNA FP	LANA-H2B inh	ALR H2O2 inh	Ecoli growth	FGF22 binding	UCH37 inh
CCOC(=O)c1ccccc1-c1csc(N)n1	0	2.5	9.2	3	0.64	/	3.2
Cc1cc2ccccc2c(=O)n1CC(=O)NCC(=O)N1CCN(c2ccccc2)CC1	-6	-3.2	0.1	37	0.68	/	-3.8
COc1cccc(/C=C/C(=O)NCC2CCCCC2)c1	-4	-3.2	-2.5	3	0.67	i	-5.5
O=S(=O)(c1ccc(F)cc1)N1CCC2(CC1)OCCN2S(=O)(=O)c1cccs1	4	-1.6	0.6	1	0.68	i	4.6
CC(C)C[C@H](NC(=O)c1nc[nH]c1C(=O)N(C)Cc1ccccc1)C(=O)OCc1ccccc1	5	2.2	3.3	24	/	i	1.0
CCCCn1c(N)c(N(CC(C)C)C(=O)C2CC(=O)N(Cc3ccco3)C2)c(=O)[nH]c1=O (stereo unspecified)	-1	1.8	-3.1	-2	0.66	i	2.2
Cc1ccc2c(cnn2C(=O)CCC(=O)NC2CCCC2)c1	-7	-0.6	-4.0	-5	0.72	i	-0.2
CC(C)NCC(O)COC1CCC(C(C)(C)C)CC1 (stereo unspecified)	14	6.5	-0.7	0	0.62	i	0.7
COc1ccc(S(=O)(=O)N2CCN(C(=O)C3CCCO3)CC2)cc1 (stereo unspecified)	-1	11	-4.5	2	0.69	i	3.8
CCOC(=O)Cc1csc(NC(=O)c2cc(=O)c3ccccc3o2)n1	4	0.2	-1.5	9	0.64	i	8.8
COc1ccc(NC(=O)c2cccc(S(=O)(=O)Nc3ccc(Br)cc3)c2)cn1	1	-3.2	-4.4	-17	0.63	i	2.1
c1ccc(-c2cc3c(N4CCCC4)ncnc3s2)cc1	2	5.4	-2.7	1	0.7	i	-7.6
O=C1CN(C(=O)COc2ncnc3ccccc23)c2ccccc2N1	-6	1.4	-0.2	-17	0.7	/	5.9
Clc1ccc(COn2c(-c3ccc(Cl)cc3Cl)nc3ncccc32)cc1	1	0.8	-4.2	-4	0.76	/	-7.1
CCCOc1cccc(-c2cc(-c3n[nH]c(=S)n3CC)c3ccccc3n2)c1	-4	-0.1	/	/	0.71	i	-0.8
Cn1c(=O)[nH]c(=O)c2c1nc(Br)n2CCSc1nc2ccccc2o1	-14	1.1	-0.7	-9	0.71	/	2.3
Cc1occc1-c1nnc(SCC(=O)N2CCc3ccccc32)o1	8	-3.0	-1.8	-1	0.67	/	5.4
CC(C)COc1ccc(C(=O)Nc2ccc(NC(=O)c3ccco3)cc2)cc1	-5	3.9	5.4	-6	0.68	/	-1.3
CCN(CC(=O)Nc1ccc(C(=O)Nc2ccc(OC)cc2)cc1)Cc1nc2ccccc2c(=O)[nH]1	16	-5.2	1.2	-13	0.69	i	-1.9
Cc1ccc(CN(C)C(=O)C2CCC(=O)N(CCc3ccccc3)C2)o1 (stereo unspecified)	1	0.8	/	/	/	i	/
COc1cccc(C(=O)NNC(=O)Cc2cccs2)c1	2	-0.8	-1.1	-18	0.73	i	2.8
Nc1nc(-c2ccccn2)nc(N)c1Cc1ccc(Cl)cc1Cl	-9	2.3	3.9	-3	0.36*	i	-1.5
CN(c1ccccc1C(=O)N1CCCC1)S(C)(=O)=O	-6	-2.2	5.3	-12	0.71	/	/
Cc1cc(-c2nnc(SCC(=O)Nc3ccc(F)cc3F)n2N)n[nH]1	0	4.9	2.6	-7	0.68	i	0.8
Cc1c(NC(=S)NC(=O)c2ccccc2Br)c(=O)n(-c2ccccc2)n1C	-3	1.3	-0.6	2	0.67	i	1.7
COc1ccc(CCNC(=O)CSc2nnnn2-c2ccccc2)cc1	1	0.2	-2.1	-14	0.67	/	3.5
O=C(NCc1ccccc1)c1ccccc1Br	8	-0.1	1.6	2	0.7	i	0.2
CC(Cc1cccs1)NC(=O)Nc1cccc(Cl)c1 (stereo unspecified)	-3	4.1	-4.3	/	0.68	/	2.7
O=C1C2C3C=CC(C4CC34)C2C(=O)N1c1ccc2c(c1)OCO2 (stereo unspecified)	6	-2.2	-5.6	16	0.68	i	-1.7
CC(C)(C)c1ccccc1NC(=O)c1cccnc1	1	-3.1	0.4	-6	0.67	i	3.9
CC(/C=C/c1ccc2c(c1)OCO2)=N/NC(=O)c1ccc(C)nc1	-1	2.5	-5.1	4	/	/	/
CC(=O)N1CCN(C(=S)c2cccc([N+](=O)[O-])c2)CC1	-3	-2.0	-0.9	-11	0.69	i	0.4
O=C(CSc1nnc(-c2csc3c2CCCC3)o1)Nc1ccccc1	-7	-0.6	0.9	/	0.7	i	4.8
COc1ccc(S(=O)(=O)N2CCCOC2CNC(=O)C(=O)NCCc2ccco2)cc1C (stereo unspecified)	-7	-2.6	5.6	-9	0.76	i	2.0
CCOC(=O)Nc1ccc2c(CNC(C)c3ccccc3OC)cc(=O)oc2c1 (stereo unspecified)	0	2.6	-1.0	-2	0.63	i	-24
Cc1nnc(SCC(=O)N2CCc3ccccc32)n1-c1ccccc1	-8	-3.5	-0.2	-10	0.74	/	4.3
O=[N+]([O-])c1ccccc1S(=O)(=O)Oc1ccccc1/C=N/n1cnnc1	-3	0.9	-0.5	-8	/	i	/
CN(C[C@H](Cc1ccccc1)N(C[C@H](Cc1ccccc1)N(CCc1cc(C(F)(F)F)cc(C(F)(F)F)c1)N=O)N=O)N=O	3	-3.6	1.9	-17	0.75	i	-0.2
C/C=C\C(=O)Nc1cccc(C2=NOC3(C2)C[C@@H](C(N)=O)N(C(=O)COc2ccc(Cl)cc2)C3)c1 (stereo partly specified)	-10	5.9	7.3	/	/	i	-1.2
CCc1ccccc1NC(=O)CN(C)C(=O)CSc1nnc(Nc2cccc(C)c2)s1	-6	2.1	0.3	-6	0.65	i	3.8
NC(=O)c1ccc(Oc2ccc3ccc(=O)oc3c2)c([N+](=O)[O-])c1	-5	-6.2	-5.8	-7	/	/	/
CCNC(=S)NNC(=O)c1cc(-c2ccc(OC)cc2)nc2ccccc12	-7	3.5	-8.1	42	0.68	/	-38
COc1ccc(CCNS(=O)(=O)c2ccc3c(c2)OCCO3)cc1	1	4.2	-1.3	0	0.67	/	0.5
C=C1CCN([C@@H](Cc2ccccc2)C(=O)NC2CCN(Cc3ccccc3)CC2)S(=O)(=O)c2ccccc21	3	0.1	0.8	-7	/	i	0.1
O=C(OCn1nnc2ccccc2c1=O)c1ccc2ccccc2n1	-6	-0.5	/	/	0.68	/	6.2
CCCN(CCC)c1nc(Cl)nc(NCCN2CCOCC2)n1	-8	0.4	1.0	13	0.68	i	-1.8
COc1ccccc1C(=O)NC(=O)Cn1nc(C)c([N+](=O)[O-])c1C	-6	-2.7	12	-3	0.68	i	2.6
CC(C)(C)c1ccc(/C=C(\C#N)C(=O)Nc2ccccn2)cc1	14	2.4	-1.1	-2	0.66	i	-2.7
CCSc1nnc(NC(=O)CSc2nnc(Cc3cccn3C)n2-c2ccc(C)cc2)s1	0	-0.4	3.2	/	0.69	i	4.6
Cc1cccc(C(C)C)c1NC(=O)COC(=O)C1CC(=O)N(Cc2ccccc2)C1 (stereo unspecified)	6	3.4	-5.8	-1	0.66	i	0.2
CC1CCCCC1NC(=O)NC(=O)COC(=O)c1cncc(Br)c1 (stereo unspecified)	5	-1.4	/	/	0.68	i	3.1
N/C(COc1ccc(Cl)cc1Cl)=N\O	-1	2.9	-1.7	-21	/	i	/
CCN(CC)c1ccc(/C=N/NC(=O)CNC(=O)c2cccnc2)cc1	2	0.9	5.2	99*	/	i	/
CCCN=C1N(C)C[C@@H]2[C@@H]3C(=O)N(Cc4ccccc4)C(=O)[C@@H]3[C@](C)(C(=O)OC)N12	-4	1.2	/	/	0.7	/	-0.5
CCN1CCN(c2ncc(C(=O)N3CCCc4ccccc43)c3ccccc23)CC1	0	-0.8	-4.5	-5	0.74	/	5.2
CC(C)(C)NC(=O)C(c1cccs1)N(CC1CCCO1)C(=O)c1ccc(-c2ccccc2)[nH]1 (stereo unspecified)	3	0.2	-1.6	-5	0.68	/	1.3
CC(=O)NCCc1nc2ccccc2n1CCOc1ccccc1	1	-5.7	-1.0	-4	0.7	i	3.3
CC(=O)Nc1ccc(C(=O)COC(=O)c2c(C)noc2C)c(F)c1	14	4.3	-0.9	5	0.7	i	2.3
Cc1nc(N2CCN(C)CC2)[nH]c(=O)c1Cc1cccc2ccccc12	4	-3.9	-1.4	/	0.72	/	1.6
O=C(O)CCn1[nH]c(=O)c2ccccc2c1=O	-8	-3.1	5.8	3	0.67	/	4.2

New compounds follow
SMILES	Beta2AR agonist	HNF4A DNA FP	LANA-H2B inh	ALR H2O2 inh	Ecoli growth	FGF22 binding	UCH37 inh
CCSc1nnc(NC(=O)c2cc(-c3ccc(C)c(C)c3O)n[nH]2)s1	3	-2.5	/	/	0.66	i	0.0
CCOc1ccc(NC(=O)Cn2nnc(-c3ccccc3NC(=O)c3cccs3)n2)cc1	-5	-6.3	0.4	-4	0.73	/	-15
O=C(Nc1ccc(Cl)c([N+](=O)[O-])c1)c1ccco1	-11	3.0	0.0	-2	0.69	i	5.9
O=C(Nc1ccc(N2CCOCC2)cc1N1CCOCC1)c1ncoc1-c1cccc(F)c1	-8	5.0	-2.2	/	0.7	i	3.8
COc1ccc(C(=O)N2c3cc4c(cc3C(C)=CC2(C)C)OCO4)cc1	-1	-3.0	-19	/	0.7	/	5.1
CCOC(=O)c1ccc(-n2c(-c3ccco3)nc3ccccc3c2=O)cc1	-17	3.0	6.0	-5	0.69	/	-2.6
